Bioassay records: PubChem, Emory University Molecular Libraries Screening Center
Measles inh = inhibitors of measles virus growth in infected cells; hit rate 0.1% among 33,000; infected Vero cells, GFP fluorescence, 64 h; hits give low values; z-score (concentration not given with the values);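 active means z-score under -3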;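 further: score is relative to mean and SD of the compound wells of a plate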
Starred values were filed as active, the others as inactive. Not all compounds are listed; the hit share may differ from the screen's.

Screening Clc1ccc(-c2onc3ccc(I)cc23)cc1 returned Measles inh 0.19.
Screening CC1CCN(C(=O)Cn2c(=O)n(Cc3ccccc3)c(=O)c3c4c(sc32)CCC4)CC1 returned Measles inh -0.72.
Screening COc1ccc2cc3cc(C(=O)NCCCN4CCN(c5ccccc5F)CC4)sc3nc2c1 returned Measles inh -0.25.
For Cc1ccc2c(c1)N(C(C)C(=O)NCc1ccco1)C(=O)CO2 (centres undefined) the results were Measles inh -0.21.
Screening Cc1c(NC(=O)C(C)Oc2ccc(F)cc2)c(=O)n(-c2ccccc2)n1C (centres undefined) returned Measles inh -0.21.
`CCN(CC)C1=C(C(=O)c2ccccc2)N(CC(N)=O)S(=O)(=O)c2ccccc21` gave Measles inh 1.3.
For CC(C)(C)C(=O)C1C(c2cccc3ccccc23)C(C#N)(C#N)C2c3ccccc3C=CN12 (centres undefined) the results were Measles inh -0.12.
For CC(=O)Nc1ccc(S(=O)(=O)NC2CCC(C(=O)O)CC2)cc1 (centres undefined) the results were Measles inh 0.23.
`CCN(CC)c1ccc2cc(-c3nc(-c4ccccc4)n[nH]3)c(=O)oc2c1` gave Measles inh 2.6.
`CCOC(=O)CN(Cc1cccs1)S(=O)(=O)c1ccc(Br)cc1` gave Measles inh -0.07.
Cn1c(=O)cc(NCc2ccccc2)[nH]c1=O was read as Measles inh 0.87.
Screening COc1ccc(-n2c(=S)[nH]c3cc(C(=O)NC4CCCC(C)C4C)ccc3c2=O)c(OC)c1 (centres undefined) returned Measles inh -0.63.
For CCOc1ccc(S(=O)(=O)N(C(=O)c2ccc(C)cc2)c2ccc3oc(C)c(C(C)=O)c3c2)cc1 the results were Measles inh -0.11.
`COc1ccc(C2C=C(c3cccnc3)Nc3ncnn32)c(OC)c1OC` (centres undefined) gave Measles inh -0.31.
For COc1ccc(-c2nnc(SCC(=O)Nc3nccs3)o2)cc1 the results were Measles inh 0.74.
N#CCSc1nc2ccccc2c(=O)n1CCC(=O)NC1CCCCC1 was read as Measles inh 1.5.
O=C(CSc1nc2ccsc2c(=O)n1-c1ccccc1)NCC1CCCO1 (centres undefined) was read as Measles inh -1.1.
COc1ccc(NC(=O)CSc2nnc3c(C)cc4ccccc4n23)cc1 was read as Measles inh 1.3.
Screening Cc1cc(C)c(NC(=O)Cn2c(=O)n(-c3ccccc3)c(=O)c3c(C)c(C(=O)N(C)C)sc32)c(C)c1 returned Measles inh -0.84.
CC(=O)Nc1cc(C(=O)NCc2ccco2)ccc1Sc1ccc(C)cc1 was read as Measles inh 0.73.
`O=C(Nc1ccc(S(=O)(=O)Nc2nccs2)cc1)c1ccncc1` gave Measles inh 0.15.
O=c1c(-c2ccc(Cl)cc2)coc2cc(OCc3ccc(F)cc3)ccc12 was read as Measles inh -0.45.
Cc1ccccc1OCC(=O)Nc1ccc2c(c1)oc1ccccc12 was read as Measles inh -0.41.
Screening CC1(C)Cc2nc(NCc3ccccc3)c(C#N)cc2CO1 returned Measles inh -0.82.
COc1cc(C2Nc3ccc4ccccc4c3C3=C2C(=O)CCC3)ccc1OC(C)=O (centres undefined) was read as Measles inh -0.68.
`CSc1cccc(NC(=O)CCc2nc(-c3ccccc3F)no2)c1` gave Measles inh -0.9.
Screening COc1ccc(CN2CCN(Cc3ccco3)CC2)cc1Br returned Measles inh 0.02.
`COCCCNC(=O)CCN1C(=O)COc2ccccc21` gave Measles inh 0.64.
CCSc1nc(N)c2c(C)c(C)sc2n1 was read as Measles inh 2.3.
`CCOc1ccc(CNc2ccc3c(c2)ncn3C(C)(C)C)cc1` gave Measles inh -0.46.
Cc1ccc(Nc2nc(-c3ccc(C)c(C)c3)cs2)cc1 was read as Measles inh -0.2.
For CCc1cc2c3c(c1)C(C)=CC(C)(C)N3C(=O)C2=O the results were Measles inh 0.53.
For Cc1ccccc1NCC(O)Cn1c(C)c(C)c2ccccc21 (centres undefined) the results were Measles inh -0.53.
COc1ccc(Cl)cc1NC(=O)c1ccc(C)cc1 was read as Measles inh 0.3.
Screening COc1ccccc1CNC(=O)CN1C(=O)CSc2ccc(S(=O)(=O)N3CCOCC3)cc21 returned Measles inh 0.11.
For COc1ccc(CNC(=O)C2CCCN(C(=O)N(C)C)C2)cc1 (centres undefined) the results were Measles inh 0.22.
`CC12CC(NC(=O)N1c1cccc(C(=O)NCc3cccs3)c1)c1ccccc1O2` (centres undefined) gave Measles inh -0.61.
For Cc1ccc2c(c1)C(c1ccc(F)cc1)N(C(=O)c1cc3ccccc3oc1=O)CC(=O)N2 (centres undefined) the results were Measles inh -0.71.
Cc1ccc(-n2nc3c(c2NC(=O)Cc2ccccc2)CSC3)cc1 was read as Measles inh 1.9.
`Fc1ccc(-c2cc(C(F)(F)F)nc(N3CCCC3)n2)cc1` gave Measles inh -1.4.
COc1ccc2nc(SCC(=O)Nc3cc(Cl)ccc3OC)[nH]c2c1 was read as Measles inh -0.29.
Screening COc1cc(C=Nc2ccc(C)c([N+](=O)[O-])c2)ccc1OC(C)=O returned Measles inh 0.2.
`COCCNc1nc(SCc2cc(F)cc3c2OCOC3)nc2ccccc12` gave Measles inh -0.49.
CCOc1ccccc1C(=O)Nc1ccc(CC)cc1 was read as Measles inh -1.1.
CC1CCCCC1NC(=O)c1cnn2c(C(F)(F)F)cc(-c3cccs3)nc12 (centres undefined) was read as Measles inh 0.12.
For COc1cc2nc(-c3ccc4c(c3)C(=O)N(c3ccccc3-c3ccccc3)C4=O)oc(=O)c2cc1OC the results were Measles inh 0.45.
`Cc1ccc2cc3cc(C(=O)N4CC(C)CC(C)C4)sc3nc2c1` (centres undefined) gave Measles inh 0.07.
`O=C(NCc1ccco1)c1ccc2c(c1)NC(=O)c1ccccc1S2` gave Measles inh 1.4.
For Cc1cccc2oc(-c3ccc(NC(=O)c4ccc(Cl)cc4)cc3)nc12 the results were Measles inh 0.92.
`COCCOC(=O)C1=C(C)NC(=O)NC1c1cccc([N+](=O)[O-])c1` (centres undefined) gave Measles inh 0.8.
Screening CC1CCCCC1NC(=O)c1ccc2c(c1)NC(=O)C(N1CCCCC1)S2 (centres undefined) returned Measles inh -1.1.
`O=C(Nc1ccc(-c2nc3ncccc3o2)cc1)c1ccc(-c2ccc(F)cc2)o1` gave Measles inh -0.75.
Screening CN(C)c1oc(-c2ccccc2)nc1S(=O)(=O)c1ccccc1 returned Measles inh 0.14.
Screening CC(C)CC1=NN(C(=O)c2ccccc2Br)C(O)(C(F)(F)F)C1 (centres undefined) returned Measles inh -1.8.
For O=C1CCCc2c1cc(C(=O)Nc1ccc(Cl)cn1)c(=O)n2-c1ccccc1 the results were Measles inh 0.33.
COc1ccccc1C1C(C(=O)OCCC(C)C)=C(C)Nc2nnnn21 (centres undefined) was read as Measles inh -1.3.
CN1C(=S)SC(C)(C)C1[N+]([O-])=Cc1cccc([N+](=O)[O-])c1 (centres undefined) was read as Measles inh -0.29.
`O=C(O)c1cc(S(=O)(=O)N2CCOCC2)ccc1F` gave Measles inh 1.4.
`CC1=C(C(=O)OCc2ccc(C)cc2)C(c2ccc(O)cc2)NC(=O)N1` (centres undefined) gave Measles inh 1.2.
For CC(=O)Oc1ccc2occ(C(=O)c3cccs3)c2c1 the results were Measles inh -0.65.
Screening CCCCn1c(SCC(=O)OCC)nc2sc3c(c2c1=O)CCC3 returned Measles inh 0.46.
CC(C)COc1cccc(C(=O)Nc2ccc(CN3CCOCC3)cc2)c1 was read as Measles inh -0.56.
For COc1ccc(-n2c(=S)[nH]c3cc(C(=O)N4CCc5ccccc5C4)ccc3c2=O)c(OC)c1 the results were Measles inh -0.01.
C=CCSc1nnc2n(-c3ccccc3)c(=O)c3c(C)c(C)sc3n12 was read as Measles inh 0.13.
For CS(=O)(=O)c1ncn(-c2ccccc2)n1 the results were Measles inh -0.02.
CCc1ccc(NS(=O)(=O)c2ccc3c(c2)CC(C)N3C(C)=O)cc1 (centres undefined) was read as Measles inh -1.1.
Screening CCCC[n+]1c(C)sc2ccccc21 returned Measles inh -1.6.
For Cc1ccc(CN2C(=O)c3ccccc3Sc3ccc(C(=O)NCCCN4CCOCC4)cc32)cc1 the results were Measles inh -0.41.
Screening O=C1C2C3c4ccccc4C(c4ccccc43)C2C(=O)N1c1ccccc1O (centres undefined) returned Measles inh -0.05.
Screening CCCCSc1nnc2c(n1)OC1(CCCCC1)Nc1ccccc1-2 returned Measles inh 0.82.
For Cc1ccc(S(N)(=O)=O)cc1NC(=O)CSc1nc(N)cc(=O)[nH]1 the results were Measles inh 0.55.
Screening COc1ccccc1CNC(=O)c1cnn2c(C)c(Cc3c(C)cc(C)cc3C)c(C)nc12 returned Measles inh -0.63.
CCOc1ccc2nc(Nc3nc(C)cc(C(F)(F)F)n3)nc(C)c2c1 was read as Measles inh -1.5.
COc1ccc(C2=CC(c3ccc(F)cc3)c3ccccc3O2)cc1 (centres undefined) was read as Measles inh -0.61.
CCOC(=O)c1c(NC(=O)CCN2CCOCC2)sc2c1CCC(C)C2 (centres undefined) was read as Measles inh -0.65.
`O=S(=O)(Nc1ccc(F)cc1)c1ccc(N=Cc2ccccc2O)cc1` gave Measles inh 0.57.
Screening COCCOC(=O)C1=C(C)NC2=C(C(=O)CC(c3cccc(OC)c3)C2)C1c1coc2ccc(Cl)cc2c1=O (centres undefined) returned Measles inh -0.28.
`COc1cccc(NC(=O)c2oc(=O)c3ccccc3c2-c2ccc(C)cc2)c1` gave Measles inh 0.92.
For CCN(CC)CCNC(=O)Cn1nc(-c2ccc(Cl)cc2)ccc1=O the results were Measles inh 0.65.
Screening O=[N+]([O-])c1cccc(-c2noc(-c3cccs3)n2)c1 returned Measles inh -1.8.
O=S(=O)(c1ccc(-c2ccccc2)cc1)N1CCSC1c1ccccc1Cl (centres undefined) was read as Measles inh -0.59.
`COc1ccc2oc(=O)c(-c3csc(Nc4ccc(C(F)(F)F)cc4)n3)cc2c1` gave Measles inh 0.02.
Cc1ccccc1-n1nc2c(c1NC(=O)c1ccc(Cl)cc1)CSC2 was read as Measles inh -0.06.
For CCOc1cc(C(=S)N2CCCC2)ccc1OCc1ccccc1F the results were Measles inh 2.2.
Screening O=C(C1CC1)N1CCc2cc(S(=O)(=O)N(c3cccnc3)S(=O)(=O)c3ccc4c(c3)CCN4C(=O)C3CC3)ccc21 returned Measles inh 0.01.
For Cc1cc(N2CCCCC2)nc2ccc(NC(=O)CCC(=O)NC3CCCC(C)C3C)cc12 (centres undefined) the results were Measles inh -0.48.
Cc1cc(C)c(C#N)c(SCC(=O)c2ccc(O)c(O)c2)n1 was read as Measles inh -0.32.
Cc1ccc(-n2ncc3c(=O)[nH]c(SCc4ccccc4F)nc32)cc1 was read as Measles inh 1.6.
For O=C1C2CCCCC2C(=O)N1c1ccc(N2CCN(Cc3ccccc3)CC2)c([N+](=O)[O-])c1 (centres undefined) the results were Measles inh 0.68.
Screening CC(=O)NS(=O)(=O)c1ccc(N/C=c2\c(C)c(C#N)c3nc4ccccc4n3c2=O)cc1 returned Measles inh 1.1.
`CS(=O)(=O)N1CCN(c2ccc([N+](=O)[O-])cc2Cl)CC1` gave Measles inh -0.26.
Cc1ccc(CNC(=O)CN2C(=O)CC(C)(C)Sc3ccccc32)cc1 was read as Measles inh -1.3.
For COc1ccccc1N1CCN(C(=O)c2cnn3c2NC(c2ccc(Br)cc2)CC3C(F)(F)F)CC1 (centres undefined) the results were Measles inh -1.
CCc1ccccc1NC(=O)c1ccc(F)c(S(=O)(=O)N2CCCCCC2)c1 was read as Measles inh 0.09.
Screening CSc1nc2n(n1)C(c1ccc(Cl)cc1)C1=C(CCCC1=O)N2 (centres undefined) returned Measles inh -0.36.
CCOc1cccc2sc(NC(=O)c3ccc(S(=O)(=O)N(CC)CC)cc3)nc12 was read as Measles inh -0.45.
CCOc1ccccc1NS(=O)(=O)c1cccc2nsnc12 was read as Measles inh 1.1.
`COc1ccc(-n2nc(C(=O)Nc3ccc(Oc4ccccc4)cc3)c3c4ccccc4n(C)c3c2=O)cc1` gave Measles inh 1.8.
For COc1ccc(S(=O)(=O)N2CCN(C34CC5CC(CC(C5)C3)C4)CC2)cc1OC the results were Measles inh 0.28.
`CC(C)N(CCNC(=O)c1ccc(N2CCCC2=O)cc1)Cc1ccccc1` gave Measles inh -0.84.
`O=C(NS(=O)(=O)Oc1ccccc1F)N1CCN(c2c(Cl)cc(Cl)c[n+]2[O-])CC1` gave Measles inh 1.3.
`CCOC(=O)c1cnc2c(ccc3ccccc32)c1N1CC2(C)CC1CC(C)(C)C2` (centres undefined) gave Measles inh 2.5.
Screening O=C(Nc1ccc2oc(-c3cccnc3)nc2c1)c1ccccc1F returned Measles inh -1.
For Cc1cc(C)c(OCC(=O)N2N=C(c3ccccc3)CC2(O)C(F)(F)F)c(C)c1 (centres undefined) the results were Measles inh 1.
COCCNC(=O)C1CCC(CNS(=O)(=O)c2ccccc2)CC1 (centres undefined) was read as Measles inh 2.1.

In the list so far, these contain two or more sulfur atoms:
`CCOC(=O)CN(Cc1cccs1)S(=O)(=O)c1ccc(Br)cc1` gave Measles inh -0.07.
For COc1ccc(-c2nnc(SCC(=O)Nc3nccs3)o2)cc1 the results were Measles inh 0.74.
O=C(CSc1nc2ccsc2c(=O)n1-c1ccccc1)NCC1CCCO1 (centres undefined) was read as Measles inh -1.1.
`O=C(Nc1ccc(S(=O)(=O)Nc2nccs2)cc1)c1ccncc1` gave Measles inh 0.15.
CCSc1nc(N)c2c(C)c(C)sc2n1 was read as Measles inh 2.3.
Screening COc1ccccc1CNC(=O)CN1C(=O)CSc2ccc(S(=O)(=O)N3CCOCC3)cc21 returned Measles inh 0.11.
CN1C(=S)SC(C)(C)C1[N+]([O-])=Cc1cccc([N+](=O)[O-])c1 (centres undefined) was read as Measles inh -0.29.
Screening CCCCn1c(SCC(=O)OCC)nc2sc3c(c2c1=O)CCC3 returned Measles inh 0.46.
C=CCSc1nnc2n(-c3ccccc3)c(=O)c3c(C)c(C)sc3n12 was read as Measles inh 0.13.
For Cc1ccc(S(N)(=O)=O)cc1NC(=O)CSc1nc(N)cc(=O)[nH]1 the results were Measles inh 0.55.
O=S(=O)(c1ccc(-c2ccccc2)cc1)N1CCSC1c1ccccc1Cl (centres undefined) was read as Measles inh -0.59.
Screening O=C(C1CC1)N1CCc2cc(S(=O)(=O)N(c3cccnc3)S(=O)(=O)c3ccc4c(c3)CCN4C(=O)C3CC3)ccc21 returned Measles inh 0.01.
CCOc1cccc2sc(NC(=O)c3ccc(S(=O)(=O)N(CC)CC)cc3)nc12 was read as Measles inh -0.45.
CCOc1ccccc1NS(=O)(=O)c1cccc2nsnc12 was read as Measles inh 1.1.
